Screens: PubChem BioAssay, ICCB-Longwood Screening Facility, Harvard Medical School
HCMV UL50-53 inh: inhibitors of HCMV UL50-UL53 nuclear egress complex interaction; HTRF UL50-UL53 interaction, normalized percent inhibition; inhibition, % (concentration not given with the values); hit rate 0.15% among 190,000; AID 1918969;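 active means both replicates at 50% or more, plus weaker picks with an unusually low signal ratio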;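 further: stock transfer was 100 nL into about 20 µL; 0% = negative control wells and 100% = wells with untagged competitor protein; inactives centre near -12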
Sa growth inh: blocks Staphylococcus aureus growth; relative growth, % (test concentration not listed); hit rate 0.53% among 170,000; S. aureus RN4220 growth, OD600, 20 h, 42 °C; active compounds read low;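 active means growth at 42 °C up to 50% and 20 or more points under that at 30 °C, or under 10% at both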;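 further: 300 nL library stock went into each well; scaled to the means of positive and negative controls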
GIV Gai3 FP: inhibitors of GIV GBA-motif binding to rat Galpha-i3 | hit rate 0.42% among 210,000 | Galpha-i3/FITC-GIV peptide fluorescence polarization, 90 min; active compounds read low; scaled: aluminum fluoride 0%, vehicle 100% | P08753 | AID 1224905 | percent of control (FP), % (concentration not given with the values);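 active means replicate mean at 85% of control or lower, very high polarization wells dropped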;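 further: wells of about 15 µL received 100 nL stock; the first replicate is given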
Target sequence (P08753 whole entry, looked up): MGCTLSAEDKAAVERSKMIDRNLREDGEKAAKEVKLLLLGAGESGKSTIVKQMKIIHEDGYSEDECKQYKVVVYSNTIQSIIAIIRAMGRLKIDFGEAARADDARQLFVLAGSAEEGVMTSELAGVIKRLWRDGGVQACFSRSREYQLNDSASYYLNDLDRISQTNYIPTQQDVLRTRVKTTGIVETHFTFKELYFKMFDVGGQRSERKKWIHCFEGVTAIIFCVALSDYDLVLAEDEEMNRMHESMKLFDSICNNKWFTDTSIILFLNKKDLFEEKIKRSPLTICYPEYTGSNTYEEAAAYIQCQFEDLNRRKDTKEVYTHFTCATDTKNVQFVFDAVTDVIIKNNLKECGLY
Sa growth inh second temp: further read-out of Sa growth inh, marked with its call; relative growth, %; measured here: growth at 30 °C;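 optical density after 20 h as mean of two plates; 100% = untreated growth and lower means inhibition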
* hit, by the source's call; x = not tested or not shown; & = joins results of further samples.

Below each compound: Sa growth inh second temp	GIV Gai3 FP	Sa growth inh	HCMV UL50-53 inh
(1) Cc1ccc(CN2CC(=O)N(c3ccc(Br)cc3)[C@@H]3CS(=O)(=O)C[C@@H]32)cc1
 : x	108	x	-8
(2) CCOC(=O)c1ccc2c(c1)nc(SCC(=O)C(C)(C)C)n2CC
 : 84	x	98	-2
(3) CN(C)P(=NC(=O)COc1ccc(Cl)cc1Cl)(N(C)C)N(C)C
 : 81	x	101	-37
(4) O=C(Nc1sc2c(c1C(=O)O)CCCC2)c1cccs1
 : 75	x	128	-48
(5) CC1(C)CC2CC(C)(CN2c2nc(-c3ccco3)cc(C(F)(F)F)n2)C1 (stereo unspecified)
 : 91	103	92	x
(6) CCCn1c(N)c(C(=O)CSc2nnc(-c3ccco3)n2-c2ccccc2)c(=O)n(C)c1=O
 : 99	x	93	8
(7) C#CCn1cnc2c(oc3ccccc32)c1=O
 : 95	104&110	102	5&-3
(8) Cc1ccc(C)c(NC(=O)C(CC(C)C)N2Cc3ccccc3C2=O)c1 (stereo unspecified)
 : 106	109	101	x
(9) Cc1ccc(-c2nn3c(=O)cc(CN4CCN(C(=O)/C=C/c5ccccc5)CC4)nc3s2)cc1
 : 92	101	77	x
(10) CCc1ccc(N2CC34C=CC(O3)C(C(=O)O)C4C2=O)cc1 (stereo unspecified)
 : 107	98	85	18
(11) CCn1c(=O)c2c(C(=O)N3CCN(C)CC3)cc(=O)n(CC)c2n(C)c1=O
 : x	103	x	-29
(12) Cc1ccc(-n2nc(C)c3c(C)cc(=O)n(CC(=O)Nc4cc(Cl)ccc4C)c32)cc1
 : 99	101	96	x
(13) O=C(Cn1c(=O)sc2cc(S(=O)(=O)N3CCCC3)ccc21)N1CCCC1
 : x	108	x	-2
(14) CCOC(=O)c1oc2ccccc2c1COC(=O)c1ccc2c(c1)OCO2
 : 90	x	88	-8
(15) COc1cccc(NC(=O)C2CCN(c3cc(C)nc4c(-c5ccc(Cl)cc5)c(C)nn34)CC2)c1
 : 101	114	91	-13
(16) CCc1cc2c(cc3c(=O)n(CC(=O)N4CC(C)CC(C)C4)nc(CC)n32)s1 (stereo unspecified)
 : 96	102	110	x
(17) O=C(/C=C/c1ccccc1)NCCOc1ccccc1
 : 78	x	86	-13
(18) NS(=O)(=O)c1ccc(NC(=O)CCN2C(=O)/C(=C/c3ccc(F)cc3)SC2=S)cc1
 : x	103	x	-18
(19) CCS(=O)(=O)N1CCC(C(=O)NC2CCCCC2C)CC1 (stereo unspecified)
 : 81	103	98	x
(20) CC(C)c1ccc2[nH]c3c(c2c1)CCCC3O (stereo unspecified)
 : 82	99	89	x

Some of these compounds in order of their number in Sa growth inh, lowest first.
no. | Molecule | Sa growth inh
17 | O=C(/C=C/c1ccccc1)NCCOc1ccccc1 | 86
14 | CCOC(=O)c1oc2ccccc2c1COC(=O)c1ccc2c(c1)OCO2 | 88
20 | CC(C)c1ccc2[nH]c3c(c2c1)CCCC3O (stereo unspecified) | 89
15 | COc1cccc(NC(=O)C2CCN(c3cc(C)nc4c(-c5ccc(Cl)cc5)c(C)nn34)CC2)c1 | 91
12 | Cc1ccc(-n2nc(C)c3c(C)cc(=O)n(CC(=O)Nc4cc(Cl)ccc4C)c32)cc1 | 96
19 | CCS(=O)(=O)N1CCC(C(=O)NC2CCCCC2C)CC1 (stereo unspecified) | 98

(listing goes on)
Below each compound: Sa growth inh second temp	GIV Gai3 FP	Sa growth inh	HCMV UL50-53 inh
(21) CCc1ccccc1NC(=O)c1sc2[nH]c(=O)c(C(=O)O)cc2c1N
 : 98	111	94	-7
(22) O=C(Cc1c[nH]c2ccccc12)OCc1c(F)c(F)c(F)c(F)c1F
 : 95	x	108	-19
(23) COc1cccc(/C=C2\SC(N3CCC(C)CC3)=NC2=O)c1OC
 : 77	104	82	-53
(24) Cc1ccc(Cc2cnc(NC(=O)C3=Cc4cc(C)ccc4OC=C3)s2)cc1
 : x	103	x	-22
(25) CC1CCCC(NC(=O)CSc2ccccc2Cl)C1C (stereo unspecified)
 : 98	x	116	-5
(26) CC(C)NC(=O)/C(C#N)=C/c1ccccc1
 : 80	x	53	-32
(27) CCN1CC23C=CC(O2)C(C(=O)O)C3C1=O (stereo unspecified)
 : 90	103	100	-2
(28) COc1cccc2c1Oc1nc(-c3ccccc3)nc(SCC(=O)Nc3ccccc3)c1C2
 : 76	112	105	-7
(29) Cc1ccc(S(=O)(=O)NC2CCN(c3ncccn3)CC2)cc1
 : 85	99	91	-19
(30) O=C(CCCC(=O)Nc1ccccc1)Nc1ccccc1
 : 79	103	97	-2
(31) COc1ccccc1OCCNS(=O)(=O)c1ccccc1C(F)(F)F
 : 96	x	103	4
(32) COc1cccc(C2=NN(S(C)(=O)=O)C(c3cn(-c4ccccc4)nc3-c3ccccc3)C2)c1 (stereo unspecified)
 : x	187	x	-26
(33) CCCC(=O)Nc1ccc2nc(SCC(=O)N3CCCC3)sc2c1
 : 85	103	127	-8
(34) COc1ccc(-c2cc(N)n(-c3ccc(Cl)c(Cl)c3)n2)cc1
 : 111	102	105	6
(35) CC(NC(=O)COc1cc(=O)n(C)c2ccccc12)c1ccc2c(c1)OCCO2 (stereo unspecified)
 : 87	101	95	x
(36) O=C(OCCOc1ccc(Br)cc1)c1ccc(Br)o1
 : 95	x	104	0
(37) Cc1cccc(NC(=O)CN(C)S(=O)(=O)c2ccc3c(c2)c(=O)n(C)c(=O)n3C)c1
 : 81	95	101	-20
(38) CC(C)C(=O)NCC(c1ccc2c(c1)OCO2)N1CCN(c2ccccc2)CC1 (stereo unspecified)
 : 96	99	97	x
(39) CC(C)(C)OC(=O)N1CCC(c2c(C(=O)N3CCN(c4ccccn4)CC3)cnn2-c2cccc(F)c2)CC1
 : 99	109	98	x
(40) Cc1ccc(-n2nc(C)c3c(C(=O)O)cc(C)nc32)cc1
 : 87	104	86	x

Shown with bars between the fields: part of the list above
nr | SMILES | Sa growth inh second temp | GIV Gai3 FP | Sa growth inh | HCMV UL50-53 inh
25 | CC1CCCC(NC(=O)CSc2ccccc2Cl)C1C (stereo unspecified) | 98 | x | 116 | -5
26 | CC(C)NC(=O)/C(C#N)=C/c1ccccc1 | 80 | x | 53 | -32

(list continues)
Below each compound: Sa growth inh second temp	GIV Gai3 FP	Sa growth inh	HCMV UL50-53 inh
(41) N#Cc1ccccc1OCC(=O)Nc1ccccc1
 : 81	x	86	-6
(42) O=C(c1ccc(COc2cc(Cl)ccc2Cl)o1)N1CCSCC1
 : 93	107	89	x
(43) COc1ccc(N(CC(=O)O)S(=O)(=O)c2c(C)noc2C)cc1
 : 82	x	99	0
(44) CN1C(=O)C(=Cc2cccs2)C(=O)N(C)C1=S
 : 70	102	85	-16
(45) O=C1CC(N2CCN(S(=O)(=O)c3ccc(Cl)cc3)CC2)C(=O)N1c1ccccc1Cl (stereo unspecified)
 : 94	x	116	1
(46) CCSc1nc(N)c(NC(=O)c2ccc(OC)c(OC)c2)c(=O)[nH]1
 : 93	104	99	-15
(47) COc1ccccc1N1CCN(C2C(=O)c3ccccc3N2C(C)=O)CC1 (stereo unspecified)
 : 86	101	99	x
(48) Cc1cc(C)cc(Sc2ccc3nnc(-c4ccccc4)n3n2)c1
 : 95	107	98	-11
(49) CCn1ncc(C2=NOC(C(=O)NCc3ccc(Cl)cc3)C2)c1C (stereo unspecified)
 : 80	101	97	x
(50) Cc1ccc(C)c(NC(=O)c2sc(C)nc2C)c1
 : x	104	x	-16
(51) CCC(=O)Nc1ccc2c(c1)CCC(=O)N2
 : x	102	x	2
(52) CC(O)CN1CN=C(SCc2ccc(Cl)cc2)NC1 (stereo unspecified)
 : 96	104	92	-16
(53) CC(=O)N1CCN(C(C)=O)C2(CCCCC2)C1
 : 89	x	89	-35
(54) Cc1ccc(S(=O)(=O)C2(C(=O)Nc3ccc(C(C)C)cc3)CC2)cc1
 : 87	106	99	1
(55) Cc1ccccc1N1C(=O)C(Oc2ccc(Cl)cc2)C1CNc1ccccc1 (stereo unspecified)
 : 98	105	101	x
(56) Cc1cccc(N(C)C(=O)c2coc(=O)c3ccccc23)c1
 : 83	103&97	110	-20
(57) O=C(OCc1nnc(-c2ccccc2)o1)c1ccccc1N/C=C/C(=O)C(F)(F)F
 : 84	x	91	-22
(58) O=C1c2ccccc2S(=O)(=O)N1Cc1ccc(Cl)cc1Cl
 : 91	95	96	x
(59) Cn1c2c(c(=O)n(C)c1=O)C(Nc1nc3ccccc3s1)(C(F)(F)F)C(=O)N2 (stereo unspecified)
 : 95	97	90	10
(60) Cc1onc(-c2ccccc2Cl)c1C(=O)NCC12CC3CC(CC(C3)C1)C2
 : 75	106	110	x
(61) Cc1sc(-c2ccno2)cc1S(=O)(=O)N1CCC(C)CC1
 : x	102	x	-16
(62) COc1ccc2cc3c(nc2c1)N(S(=O)(=O)c1ccc(OC2CCCC2)cc1)CC3
 : x	100	x	14
(63) CSc1ncccc1C(=O)Nc1ccc2c(c1)C(=O)OC2
 : 87	99	109	-8
(64) CC1CCCCN1C(=O)CSc1n[nH]c(-c2ccccc2Cl)n1 (stereo unspecified)
 : 83	102	105	x
(65) COc1cc(C(=O)n2nc(-c3ccco3)nc2NCc2ccc(Cl)cc2)cc(OC)c1OC
 : 85	100	106	-42
(66) COc1ccc(-c2cc3n(n2)CCC(=O)N3CC(=O)N2CCOCC2)cc1
 : x	112	x	-11
(67) FC(F)(F)c1cccc(Nc2cc(-c3ccccc3)nc3ncnn23)c1
 : 88	100	92	29
(68) Cc1ccc(-c2ccc(=O)n(-c3c(C)noc3C)n2)cc1S(=O)(=O)NC1CC1
 : x	108	x	-44
(69) O=C(Nc1nnc(C2CCCCC2)s1)C1c2ccccc2Oc2ccccc21
 : 96	106	101	x
(70) COC(CNC(=O)C1CCN(C(=O)c2cc3oc(C)cc3n2Cc2c(F)cccc2Cl)CC1)OC
 : 83	93	100	-4
(71) CC(C)C(=O)n1nc(-c2ccc(Cl)cc2)nc1NCc1ccccc1
 : 72	97	82	x
(72) COc1ccc2nc(NC(=O)c3ccccn3)sc2c1
 : 25	99	53	5
(73) O=C(CSc1n[nH]c(=O)n1Cc1ccccc1)NC1CC1
 : 97	x	104	6
(74) CNC(=O)NC(=O)CSc1nc2sccc2c(=O)n1-c1ccccc1
 : 99	x	98	-12
(75) COC(=O)Cn1c(=NC(=O)C2CCCCC2)sc2cc(OC)ccc21
 : 88	102	102	-16
(76) O=C(Nc1cccc(-c2nc3cccnc3s2)c1)C1c2ccccc2Oc2ccccc21
 : x	105	x	-11
(77) COc1cccc(N(C)S(=O)(=O)c2ccsc2C(=O)n2nc(C)cc2C)c1
 : x	106	x	-8
(78) COc1ccccc1Nc1cc(C(=O)NCCN2CCC(Cc3ccccc3)CC2)c2ccccc2n1
 : 1	104	104	x
(79) Cc1cccc(NC2=C(C#N)C(=O)NC3(CCCC3)S2)c1
 : 73	106	96	-4
(80) CCCCn1nnc(NCc2ccc(-c3cc(Cl)ccc3Cl)o2)n1
 : x	100	x	-12
(81) COc1ccc(CN2C(=O)C(NC(=O)c3ccccc3C)(C(F)(F)F)N=C2c2ccccc2)cc1 (stereo unspecified)
 : 78	109	88	-23
(82) CC1=C(C(=O)Nc2cc(C)ccc2C)C2(CCCCCC2)OC1=O
 : 94	103	111	x
(83) O=C(CCc1ccccc1)Nc1nnc(CCN2CCCCC2)s1
 : 99	101	107	11
(84) Cc1[nH]c2ccccc2c1C=NC1CCS(=O)(=O)C1 (stereo unspecified)
 : 85	x	94	-21
(85) CC1CCCC(C)N1NC(=O)c1ccc(-c2nc3ccccc3s2)o1 (stereo unspecified)
 : 91	x	88	-39
(86) O=C(CN1C(=O)CC(c2ccccc2)=Nc2ccccc21)Nc1ccccc1
 : x	106	x	-8
(87) COC(=O)c1cccc(CSc2nnc(-c3c[nH]c4ccccc34)o2)c1
 : 88	x	122	-16
(88) N#CCn1ccn(-c2ccc(F)c(Cl)c2)c(=O)c1=O
 : 90	100	96	-34
(89) Cc1ccccc1N1C(=O)C(Oc2ccc(Cl)cc2)C1CNC(C)C (stereo unspecified)
 : 73	101	102	-25
(90) CCN(Cc1ccccc1)Cc1c(C)n(C)n(-c2ccccc2)c1=O
 : 98	x	95	-34

(listing goes on)
Below each compound: Sa growth inh second temp	GIV Gai3 FP	Sa growth inh	HCMV UL50-53 inh
(91) O=c1[nH]nc(SC(F)(F)C(F)(F)C(F)(F)F)c(=O)[nH]1
 : 29	103	46	-52
(92) CCNC(=O)C1CC(=O)N(CCc2c[nH]c3ccc(Cl)cc23)C1 (stereo unspecified)
 : x	106	x	-3
(93) COc1ccccc1N1CCN(C(C)c2nc3ccccc3s2)CC1 (stereo unspecified)
 : 78	x	105	-21
(94) Cc1ccc(Cl)cc1NC(=O)Cn1ncc2c(C)n(Cc3ccccc3F)c(C)c2c1=O
 : 77	105	96	-22
(95) Clc1cccc(-c2nnc3c4ccccc4ncn23)c1
 : x	109	x	-2
(96) COc1ccc(N2CCN(C(=O)Cn3nc(Cc4cccnc4)c4ccccc4c3=O)CC2)cc1
 : 102	105	93	-1
(97) Cc1c(N2C(=O)/C(=C\c3ccc(N(C)C)cc3)N(C)C2=S)c(=O)n(-c2ccccc2)n1C
 : 82	x	81	-96
(98) CCCCOC(=O)c1ccc(NC(=O)c2cc(=O)c3ccccc3o2)cc1
 : 85	101	97	-23
(99) O=C(O)c1cc(O)[nH]c(=O)c1
 : 93	78*	94	83*
